# Mtb hypoxia rep – Mtb hypoxia fluorescent reporter inhibition; M. tuberculosis hypoxia-regulated fluorescent reporter, fluorescence; fluorescence inhibition, % (test concentration not listed); hit rate 0.1% among 300,000; AID 1159583;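 active = 35 to 45% if threefold the growth effect, above 45% if 1.5-fold the growth effect; inactive = the rest, general growth blockers included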;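 also: wells of about 50 µL received 100 nL stock; 0% = vehicle wells and 100% = reference inhibitor wells; whole bacteria with a GFP reporter of the hypoxia response; strong numbers were not always called active; many hits fall short of the cut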
# Sa RN4220 lethal – S. aureus RN4220 growth inhibition; OD600, 16 h; inhibition, % (concentration not given with the values); hit rate 0.33% among 330,000;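 active = z-score of -3 or lower and OD600 up to 0.18 on both plates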;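 also: plate controls were untreated cells for no effect and reference antibiotic for full effect; stock transfer was 100 nL into about 80 µL; one replicate is shown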
# BJeLR viability – kills HRASV12-expressing BJeLR cells. inhibition, % (concentration not given with the values). BJeLR (HRASV12) viability, CellTiter-Glo ATP luminescence, 48 h; reference of the scale not given here. hit rate 0.17% among 300,000;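 active = replicate mean above 50%; inconclusive = above 50% but judged a plate artefact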;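 also: 50 nL library stock added to about 25 µL; numbers are from one replicate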
# PrP UTR inh – suppresses PrP 5' UTR mRNA reporter expression | inhibition, % (concentration not given with the values) | AID 488862 | hit rate 0.35% among 340,000 | cell-based PrP 5' UTR mRNA reporter, plate reader;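 active = every replicate at 50% or more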;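 also: 0 = median of the neutral control wells; tested in H4 reporter cells; numbers are from one replicate; inactives centre near -14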
# ugtP null kill – kills S. aureus RN4220 lacking UgtP; AID 1259309; S. aureus RN4220 ugtP deletion, OD600 growth, 16 h; some inactives read as strong as hits; hit rate 0.54% among 330,000; growth inhibition, % (concentration not given with the values);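 active = z-score under -3 and OD600 up to 0.15 on both plates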;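 also: plate controls were untreated wells for no effect and antibiotic for full effect; wells of about 80 µL received 100 nL stock; the first replicate is given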
# Autofluor counter – flagged as autofluorescent in microsphere protease counterscreen; compound autofluorescence counterscreen, microsphere flow cytometry; stronger effect = higher value; fluorescence intensity (test concentration not listed); hit rate 3.1% among 360,000; AID 624483;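 active = at least 3 SD above the mean of all compounds, about 16000 in these data; inconclusive = too few beads counted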;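 also: 100 nL of 1 mM stock went into each well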
# Mtb hypoxia rep growth – further read-out of Mtb hypoxia rep, marked with its call; growth inhibition, %; measured here: M. tuberculosis growth (absorbance);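 0% = vehicle and 100% = reference antibiotic; read after six days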
# * = called active by the depositor; u = inconclusive; x = no result given.
no.	Compound	Mtb hypoxia rep	Mtb hypoxia rep growth	Sa RN4220 lethal	BJeLR viability	PrP UTR inh	ugtP null kill	Autofluor counter
1	COc1ccc(C2CC(c3cccs3)=NN2C(=O)c2ccco2)cc1OC (configuration not stated)	14	1	3.2	-4	x	11	x
2	CC(=O)OCC(=O)C1(O)CCC2C3CCC4=CC(=O)CCC4(C)C3(Cl)C(O)CC21C (configuration not stated)	7	10	2.0	x	-17	2	3835
3	CCOC(=O)c1ccc(Nc2nnc(C(C)(C)C)c(=O)[nH]2)cc1	-6	10	-3.3	-3	-19	-7	3998
4	COc1ccc(C(C[N+](=O)[O-])c2c(C)cc3ccccn23)cc1 (configuration not stated)	-3	8	12	3	-16	6	3102
5	CC1CCc2sc(C(=O)N3CCC(C(N)=O)CC3)cc2C1 (configuration not stated)	5	13	1.7	x	-40	-2	u
6	O=C(Cn1[nH]c(=O)c2ccccc2c1=O)OCC(=O)N(Cc1ccccc1)Cc1ccccc1	x	x	5.9	1	-7	3	4798
7	Cc1cc(NC(=O)COC(=O)C2CSC3(C)CCC(=O)N23)ccc1Br (configuration not stated)	4	6	5.2	x	-16	3	7311
8	CNc1ccc2nnc(C(F)(F)C(F)(F)C(F)(F)F)n2n1	3	14	3.5	0	-17	-5	2281
9	O=c1[nH]c(CS(=O)(=O)c2ccccc2)nc2ccccc12	x	x	2.6	0	-10	-1	5373
10	COc1cc2c(cc1[N+](=O)[O-])-c1ccccc1C2	17	10	7.3	x	-21	-6	3609
11	CCOC(=O)/C(C#N)=C1\CC2CCC1(C)C2(C)C (configuration not stated)	11	7	8.2	-2	-2	-5	3540
12	FC(F)(F)c1cccc(CN2CCC(c3cc(-c4cccs4)n[nH]3)CC2)c1	-7	-1	8.3	12	-20	-10	4541

# Overlap with the part before: 4 compounds; new compounds follow.
no.	Compound	Mtb hypoxia rep	Mtb hypoxia rep growth	Sa RN4220 lethal	BJeLR viability	PrP UTR inh	ugtP null kill	Autofluor counter
9	O=c1[nH]c(CS(=O)(=O)c2ccccc2)nc2ccccc12	x	x	2.6	0	-10	-1	5373
10	COc1cc2c(cc1[N+](=O)[O-])-c1ccccc1C2	17	10	7.3	x	-21	-6	3609
11	CCOC(=O)/C(C#N)=C1\CC2CCC1(C)C2(C)C (configuration not stated)	11	7	8.2	-2	-2	-5	3540
12	FC(F)(F)c1cccc(CN2CCC(c3cc(-c4cccs4)n[nH]3)CC2)c1	-7	-1	8.3	12	-20	-10	4541
13	O=C(NN=Cc1c(F)cccc1Cl)c1ccc(Cn2cc(Br)cn2)o1	-1	-1	17	x	x	-5	x
14	CCOc1ccccc1/C=C(/NC(=O)c1ccccc1)C(=O)N(CC)CC	3	7	0.6	-7	-29	0	1922
15	Cc1oc2ccc(OC(=O)c3cccs3)cc2c1C(=O)OC(C)C	-2	-10	-2.8	9	-16	13	2713
16	COc1ccc([N+](=O)[O-])cc1NC(=O)C(C)OC(=O)C1CCC1 (configuration not stated)	-3	-2	2.5	-8	3	7	4217
17	Cc1ccc(C)c(S(=O)(=O)N2CCN(C(=O)Cc3ccsc3)CC2)c1	-8	-3	2.7	-1	-5	2	5432
18	C/C(=N\NC(=S)NCc1ccccc1)c1cccc(Br)c1	x	x	x	5	-21	x	4100
19	COc1ccc(C=NNC(=O)c2ccc(Br)cc2)cc1Cn1cc(Cl)cn1	-7	-7	0.9	x	x	-18	x
20	CC1(C)c2[nH]c3ccccc3c2CC2C(=O)N(c3cc(F)ccc3F)C(=O)N21 (configuration not stated)	-1	-4	5.3	x	x	0	x
21	CCCC12CN3CCN(CC(C3)C1=NNC(=O)c1ccccc1N)C2	5	1	-1.6	x	x	-2	x
22	CCOc1cccc(C(=O)Nc2ccc3oc(-c4cccnc4)nc3c2)c1	6	10	-1.5	-1	-32	-1	6228
23	O=C(COc1ccc(Br)cc1)Nc1ccc(NC(=O)c2ccccc2)cc1	-1	-7	-4.6	0	12	-12	6035
24	CC(C)=CCCC(C)NC(=O)NC1CCCCC1 (configuration not stated)	10	6	-4.9	-9	-45	1	2490
25	CSc1ccc(C=NNC(=O)c2ccc(C)c(C)c2)cc1	4	-4	-4.2	x	x	-10	x
26	O=C(C1CC(=O)N(c2ccc(Cl)cc2)C1)N1CCC(c2nc3ccccc3[nH]2)CC1 (configuration not stated)	1	4	1.6	-5	-26	5	5073
27	Cn1cnc([N+](=O)[O-])c1S(=O)(=O)c1ccc(Cl)cc1	18	21	7.2	-13	-20	-1	2301
28	Cc1csc(N)n1	3	4	2.2	2	-5	5	3682
29	CCCCCCC(=O)c1c(O)n(-c2ccc(OC)cc2)c(=O)[nH]c1=O (tested in a mixture with another compound)	1	6	10	6	-4	15	4116
30	Cc1cnc(NC(=O)CSc2nnc(C)s2)s1	4	9	6.0	6	-34	-13	8759
31	COC(=O)Cc1ccc(N(Cc2ccccc2F)S(=O)(=O)c2ccc(Br)cc2)cc1	15	-1	0.0	10	-14	23	2658
32	COc1cc(C(=O)Nc2nc(C)c(Cc3ccc4c(c3)OCO4)s2)cc(OC)c1OC	-7	6	6.5	38	-20	-9	2888
33	CC1CN(C(=O)COC(=O)c2ccc(O)cc2)CC(C)O1 (configuration not stated)	7	1	-1.7	3	-2	-2	2928
34	Cc1onc(-c2ccccc2)c1C(=O)Nc1sc2c(c1C#N)CCC2	-1	-1	30	2	-32	-16	9775
35	CN=C(Nc1ccccc1OC)SC1CC(=O)N(c2ccc(C(=O)OC)cc2)C1=O (configuration not stated)	x	x	0.2	-5	-10	-8	2156
36	CN(C)S(=O)(=O)c1ccc(NC(=O)Cc2ccc(S(=O)(=O)N3CCOCC3)s2)cc1	-12	-1	3.0	10	-21	2	4942
37	COCCNC(=S)Nc1ccc(Cl)c(Cl)c1	10	6	0.7	1	-22	-7	2662
38	CCC(=O)Nc1ccc2ccccc2c1	x	x	x	-7	-19	x	2228
39	Cc1ccc(C(=O)OC(C)C(=O)NC2CCCCC2C)cc1S(=O)(=O)N1CCCCC1 (configuration not stated)	-5	6	2.0	7	4	2	5878
40	O=c1c2cc(N3CCOCC3)ccc2[nH]c(=S)n1CCCN1CCCCCC1	16	3	4.6	9	-23	-2	21083*
41	NS(=O)(=O)c1ccc2nc(NC(=O)Nc3ccccc3F)sc2c1	-7	10	-3.3	-13	-152	-5	4305
42	COc1cccc(CC2(CO)CCCN(Cc3ccc(CO)o3)C2)c1 (configuration not stated)	-6	11	1.1	-14	-5	3	5158
43	CC(C)Oc1ccc(C(=O)NCCCNC(=O)c2ccccn2)cc1	-5	-16	-3.3	1	-11	7	3578
44	Cc1ccccc1CN1C(=O)CSc2ccc(C(=O)N3CCOCC3)cc21	x	x	-2.8	1	-3	0	2710
45	O=C(CC1OC(=O)c2ccccc21)Nc1ccccc1N1CCOCC1 (configuration not stated)	x	x	-0.6	-6	-11	4	4929
46	COc1ccc(S(=O)(=O)N2CCOCC2)cc1NC(=O)CSc1nnc(C2CC2)n1C	-7	-2	2.7	x	-20	0	3141
47	COc1ccc(/C=C/C(=O)NC(=S)Nc2cc([N+](=O)[O-])ccc2O)cc1OC	10	10	11	-7	-11	-9	4235
48	O=C(NN=Cc1ccccn1)c1cc([N+](=O)[O-])cc([N+](=O)[O-])c1	-10	9	1.6	x	x	4	x
49	Cc1cc(NC(=O)COC(=O)CCNS(=O)(=O)c2ccccc2)n(-c2ccccc2)n1	-9	-4	2.5	3	-20	8	u
50	CCCNc1nc2c(c(=O)n(C)c(=O)n2C)n1Cc1cccc(C)c1	-3	5	1.8	14	-4	-3	10606
51	CCOC(=O)c1c(C)[nH]c(C(=O)OCC(=O)NCCc2ccc(OCC)c(OCC)c2)c1C	5	5	6.1	7	-16	4	5185
52	CCCCN(C(=O)CN1CC(C)OC(C)C1)c1c(N)n(CC(C)C)c(=O)[nH]c1=O (configuration not stated)	3	5	-1.7	8	-18	4	2325
53	COC(=O)c1ccc(C2/C(=C(\O)c3cccc(OC)c3)C(=O)C(=O)N2CCCN(C)C)cc1 (configuration not stated)	3	6	1.3	-6	-28	1	2438
54	CCCCn1c(SCC2CCCO2)nc2cc(S(N)(=O)=O)ccc21 (configuration not stated)	x	x	2.5	-3	3	4	2560
55	COc1ccc(CCNC(=O)CCN2C(=O)C3CC=CCC3C2=O)cc1OC (configuration not stated)	7	5	-2.1	-5	-11	5	4618
56	O=C(CNc1n[nH]c(=O)[nH]c1=O)NN=Cc1ccccc1	8	7	5.0	x	x	0	x
57	CC(CC(=O)Nc1ccncc1)c1ccccc1 (configuration not stated)	12	17	2.7	4	-17	1	3806
58	CCCNC(=O)N1[C@H]2CC[C@@H]1C(C(=O)OC)=C(c1ccccc1)C2	x	x	x	3	-8	x	4297
59	O=C(NN=Cc1ccc(OCC(=O)N2CCCCC2)cc1)c1ccccc1O	11	6	3.8	x	x	1	x
60	O=C(COc1ccccc1Cl)N1N=C(c2cccs2)CC1c1ccco1 (configuration not stated)	-10	10	1.5	x	1	-16	3753
61	CCc1ccc(-c2n[nH]c(=O)c3ccccc23)cc1	2	9	2.4	-9	3	7	3936
62	O=C(NCc1ccccn1)Nc1cc(Cl)cc(Cl)c1	8	-7	0.3	-6	-4	-17	5672
63	Nc1nc2ccccc2nc1N1CCCC1	-1	-1	-6.3	-5	-35	-8	11493
64	Cc1cc2ccccc2nc1SCC(=O)N1c2ccccc2CC1C (configuration not stated)	2	4	9.5	-1	-24	16	3356
65	CN1CCN(c2ccc(NC(=O)CN3CCOCC3)cc2F)CC1	14	4	8.0	1	-15	7	4058
66	CCC(C(=O)OC)n1cnc2c(nnn2-c2ccccc2)c1=O (configuration not stated)	7	6	6.4	8	-5	19	4647
67	CCSc1nnc(Cn2c(=O)sc3ccccc32)n1-c1ccccc1C	x	x	5.1	7	-5	-1	5870
68	CCCN(CCC)CCCNC(=O)c1cc2c(=O)[nH]c3ccccc3c2n1C	2	12	-2.9	x	-31	11	4498
69	O=C(COc1cccc2ccccc12)NN=Cc1ccccc1OCc1ccc(C(=O)O)cc1	11	0	7.9	x	x	-2	x
70	CCC(=O)N1CCc2cc(S(=O)(=O)NCCC(=O)N3CCN(c4cccc(OC)c4)CC3)ccc21	5	-10	-1.0	4	6	-2	5090
71	CC1=CC(=C2C(=O)NC(=O)NC2=O)C=C(C(F)(F)F)N1C(C)C	0	1	2.7	10	-8	3	21183*
72	CCC/C=N/NC(=O)c1[nH]c2c([N+](=O)[O-])cccc2c1C	x	x	x	-1	-16	x	2708

# Grouped by structure, the entries above with a cyano group (2)
no.	Compound	Mtb hypoxia rep	Mtb hypoxia rep growth	Sa RN4220 lethal	BJeLR viability	PrP UTR inh	ugtP null kill	Autofluor counter
11	CCOC(=O)/C(C#N)=C1\CC2CCC1(C)C2(C)C (configuration not stated)	11	7	8.2	-2	-2	-5	3540
34	Cc1onc(-c2ccccc2)c1C(=O)Nc1sc2c(c1C#N)CCC2	-1	-1	30	2	-32	-16	9775

# (more compounds)
no.	Compound	Mtb hypoxia rep	Mtb hypoxia rep growth	Sa RN4220 lethal	BJeLR viability	PrP UTR inh	ugtP null kill	Autofluor counter
73	CC1CN(/C=C/C=O)C(C)CC1OC(=O)c1ccccc1 (configuration not stated)	7	-2	-0.6	-16	-16	-2	4052
74	Oc1ccc(N=Nc2c(O)ccc3ccccc23)cc1	11	-2	86*	2	-17	98*	4396
75	O=C(OCCN1C(=O)c2ccccc2C1=O)c1cccs1	14	14	5.9	9	-39	3	10120
76	Cc1cc(C)n2nc(CNS(=O)(=O)c3ccc([N+](=O)[O-])cc3)nc2n1	10	8	9.3	4	-1	1	5643
77	Cc1ccc(NC(=O)Cn2nnc3ccccc3c2=O)cc1	1	2	8.6	4	-31	4	4152
78	CCc1c(C)nc2ncnn2c1NCCc1ccc(Cl)cc1	5	-3	9.9	-15	-23	-1	4092
79	C#Cc1ccc([C@@H]2C=C(C(=O)N3CCN(Cc4ccc5c(c4)OCO5)CC3)O[C@H](OCCCCO)C2)cc1	x	x	x	-2	-19	x	3602
80	COc1ccc(CC(NC(C)=O)C(=O)N2CCN(C(=O)Nc3cccc(F)c3)CC2)cc1OC (configuration not stated)	17	6	3.4	-2	-19	7	3175
81	Cc1c(NC(=O)C(=O)/C=C(\O)c2ccc(Br)cc2)c(=O)n(-c2ccccc2)n1C	5	7	4.7	-3	-20	10	2398
82	CC1CCCC(C)N1S(=O)(=O)c1ccc(S(=O)(=O)NCCc2ccncc2)cc1 (configuration not stated)	3	-2	3.7	4	-12	0	10968

# Assay outcomes as filed in PubChem BioAssay.
